# Vaccinia mCherry: qHTS for Stage-Specific Inhibitors of Vaccinia Orthopoxvirus: mCherry Reporter Primary qHTS; 0.63% of 310,000 active; Vaccinia virus mCherry reporter infection, fluorescence; about a quarter of the inactives have no number; Potency, µM (titrated, usually from 36.5 µM), without a hit: at the top dose activity change, negative = inhibition, most hits filed as inhibitors; AID 720579, 2013; active = well fitted inhibition curve with a large enough effect; inconclusive = small, poorly fitted or top-dose-only effect; inactive = no such curve, though single readings can be large or run the other way; tested in A549 cells; further: nearly all actives have a fitted effect of over 35% in size; inactives centre near -10
# Vaccinia Venus: qHTS for Stage-Specific Inhibitors of Vaccinia Orthopoxvirus: Venus Reporter Primary qHTS; Potency, µM (doses to about 36.5 µM), for inactives: at the top dose activity change, negative = inhibition, hits mostly inhibitors; Vaccinia virus Venus reporter expression, fluorescence; 0.46% of 330,000 active; active means well fitted inhibition curve with a large enough effect; inconclusive means small, poorly fitted or top-dose-only effect; inactive means no such curve, though single readings can be large or run the other way; tested in A549 cells; further: nearly all actives have a fitted effect of over 30% in size; inactives centre near -10
# * = called active by the depositor; i = inactive; ? = inconclusive; · = no result given; & = joins results of further samples. On the % scale 0 is the no-effect control and ±100 the full control effect; potency means the concentration at half of the fitted maximal effect.
[1] COCCNC(=O)C(c1ccc(C)cc1)N(C(=O)CCC(=O)Nc1ccccn1)c1ccc(C)cc1 (configuration not stated)
[2] O=C(O)C1C2C=CC(C2)C1C(=O)Nc1ccc(C(=O)N2CCCCC2)cc1 (configuration not stated)
[3] CC(C)Oc1cc(-n2c(=S)[nH]c3ccccc3c2=O)c(Cl)cc1Cl
[4] COc1ccccc1C(OC(=O)c1cccs1)C(=O)NCC1CCCO1 (configuration not stated)
[5] Cc1ccc(S(=O)(=O)N2CCCCC2)cc1NC(=O)C1CCC1
[6] Cc1ccc2nc(-c3ccc(SCC(=O)Nc4nnc(C)s4)nc3)[nH]c2c1
[7] Cc1ccoc1C(=O)NCCNC(=O)c1occc1C
[8] O=C(COC(=O)C1CCN(S(=O)(=O)c2cccc3cccnc23)CC1)c1ccc(F)cc1

compound no.	1	2	3	4	5	6	7	8
Vaccinia mCherry	-11%	-11%	·	i	-20%	?	-9%	·
Vaccinia Venus	-9%	-3%	?	-11%	-20%	11µM*	1%	-5%

[9] Cc1ccc(S(=O)(=O)c2nc(-c3cccs3)oc2NCCCN(C)C)cc1
[10] O=C(NCCS(=O)(=O)N1CCN(c2ccccc2F)CC1)c1ccco1
[11] COc1ccc(NC(=O)CSc2nc(C)cc(C)c2C(=O)Nc2cccc(C)c2)cc1
[12] Cc1ccc(NC(=O)CSc2nccn2Cc2ccc3c(c2)OCO3)c(C)c1
[13] Cc1ccc(SC[C@H](C)CN2CCC(NC(=O)OCc3ccccc3)CCC2=O)cc1 (some centres not stated)
[14] Cc1ccc2c(c1)CCCN2C(=O)c1c(C)noc1C
[15] NS(=O)(=O)c1ccc(CCNC(=O)C2CCN(S(=O)(=O)c3ccccc3)CC2)cc1
[16] O=C(/C=C/c1ccc(Cl)cc1)NC(=S)Nc1ccc(N2CCOCC2)c(Cl)c1

compound no.	9	10	11	12	13	14	15	16
Vaccinia mCherry	-16%	i	-8%	-6%	13%	-11%	4%	-13%
Vaccinia Venus	-13%	-5%	-8%	-15%	-3%	-13%	-2%	-28%

# Fetched by structure from the list above, six records:
[12] Cc1ccc(NC(=O)CSc2nccn2Cc2ccc3c(c2)OCO3)c(C)c1
[14] Cc1ccc2c(c1)CCCN2C(=O)c1c(C)noc1C
[13] Cc1ccc(SC[C@H](C)CN2CCC(NC(=O)OCc3ccccc3)CCC2=O)cc1 (some centres not stated)
[11] COc1ccc(NC(=O)CSc2nc(C)cc(C)c2C(=O)Nc2cccc(C)c2)cc1
[10] O=C(NCCS(=O)(=O)N1CCN(c2ccccc2F)CC1)c1ccco1
[9] Cc1ccc(S(=O)(=O)c2nc(-c3cccs3)oc2NCCCN(C)C)cc1

compound no.	12	14	13	11	10	9
Vaccinia mCherry	-6%	-11%	13%	-8%	i	-16%
Vaccinia Venus	-15%	-13%	-3%	-8%	-5%	-13%

# (further entries)
[17] CC(C)c1ccc(N(CC(=O)NN=C2CCN(C)CC2)S(=O)(=O)c2ccccc2)cc1
[18] COc1cc(OC)cc(C(=O)Nc2ccc(Br)cc2C(=O)c2ccccc2)c1
[19] COc1cc2ccccc2cc1C(=O)OCC(=O)c1c(N)n(C)c(=O)n(C)c1=O
[20] Cc1[nH]c(C)c(S(=O)(=O)N2CCN(c3ccccc3F)CC2)c1C(=O)N1CCCCC1
[21] Clc1cccc(-n2ncc3c(NCCC4=CCCCC4)ncnc32)c1
[22] CC(=O)c1ccc(NC(=O)N2CCc3ccccc3C2)cc1
[23] O[C@@H]1CN(CC2CCCCC2)[C@@H](c2ccccc2)C[C@H]1n1cc(-c2ccc(F)cc2)nn1
[24] O=C(COC(=O)c1c(F)cccc1Cl)NCC1CCCCC1

compound no.	17	18	19	20	21	22	23	24
Vaccinia mCherry	-4%	-14%	-10%	-20%	-12%	i	?	-2%
Vaccinia Venus	-7%	-5%	-6%	-8%	-5%	-13%	?	-16%

[25] Cc1ccc2cc(CN(CCCN(C)C)C(=O)NCc3ccccc3)c(=O)[nH]c2c1C
[26] Cc1ccc(Cl)c(NC(=O)COC(=O)c2nn(-c3ccccc3)cc2O)c1Cl
[27] c1ccc2c(c1)oc1c(NCCN3CCOCC3)ncnc12
[28] COc1ccc(N2CC(C(=O)Nc3nnc(C4CCCCC4)s3)CC2=O)cc1 (configuration not stated)
[29] O=C(Cc1cccs1)N[C@@H]1c2ccccc2CC[C@H]1OCc1ccccc1
[30] CCOC(=O)Cn1c(=O)n(C2CCCCC2)c2nc(-c3ccccc3Cl)nc(C(N)=O)c21
[31] COc1ccc(CC2(CO)CCN(Cc3cccn3-c3ccccn3)CC2)cc1
[32] N#CC(C#N)=NNc1ccc(-n2ccc(C(F)(F)F)n2)cc1

compound no.	25	26	27	28	29	30	31	32
Vaccinia mCherry	·	-20%	-20%	-7%	i	-15%	-12%	?
Vaccinia Venus	-18%	-4%	-8%	-11%	-9%	-13%	-12%	?

[33] COc1cc2c(=O)n(CCC(=O)NCC3CCCO3)c(=O)n(CC(=O)Nc3ccc(F)cc3)c2cc1OC (configuration not stated)
[34] COc1ccc([N+](=O)[O-])c(C=CC(=O)c2ccccn2)c1
[35] C=C(C)COc1ccc(-c2[nH]ncc2Oc2ccccc2OC)c(O)c1
[36] CCCCn1c(=O)n(Cc2cccc(F)c2)c(=O)c2c1ncn2Cc1ccco1
[37] CN(C)c1ccc(/C=C/C(=O)c2ccc(C(C)(C)C)cc2)cc1[N+](=O)[O-]
[38] CC1=C(C#N)C(NC(=O)c2cccc(Cl)c2)(C(F)(F)F)C(=O)N1 (configuration not stated)
[39] O=C(Nc1cnn(Cc2ccc(Cl)c(Cl)c2)c1)c1nc2ncccn2n1
[40] CN(/N=C/c1ccc(O)cc1O)c1nc(-c2ccccc2)cc(-c2ccccc2)n1

compound no.	33	34	35	36	37	38	39	40
Vaccinia mCherry	-11%&-6%	-1%	?	-16%	?	8%	·	?
Vaccinia Venus	-3%&-10%	-8%	?	-13%	?	5%&-5%	-27%	20µM*

[41] O=C(c1cccs1)N1CCN(S(=O)(=O)Cc2ccccc2)CC1
[42] Cc1ccc(S(=O)(=O)c2cc3cc(C(=O)O)ccc3oc2=O)cc1
[43] CCOc1ccc(-c2cc(NC(=O)Nc3ccc(Cl)cc3)c(C(=O)OC)s2)cc1
[44] Cc1nc2sc(C(c3ccc(Cl)cc3)N3CC(C)OC(C)C3)c(O)n2n1 (configuration not stated)
[45] C[C@@H]1CN([C@@H](C)CO)C(=O)c2cccc(NC(=O)Nc3ccccc3)c2O[C@H]1CN(C)C(=O)Nc1cccc2ccccc12
[46] CCOC(=O)[C@]12CCC=C1N(Cc1cccc3ccccc13)C(=O)[C@H](CC(=O)NCc1cccc3ccccc13)C2
[47] Cc1cc(C)n(-c2nc3cc(Cl)c(Cl)cc3nc2Nc2c(C)cccc2C)n1
[48] C=CCOc1c(CNc2ncn[nH]2)cccc1OCC

compound no.	41	42	43	44	45	46	47	48
Vaccinia mCherry	-8%	-9%	-12%	-21%	-25%	-24%	-4%	·
Vaccinia Venus	-14%	-9%	-15%	-9%	?	-19%	0%	0%

[49] Cc1ccc(NS(=O)(=O)c2cccc(C(=O)N/N=C/c3c(C)nn(-c4ccccc4)c3N3CCCC3)c2)c(C)c1
[50] Cc1cccnc1C(c1ccc(F)cc1)N(C)C(=O)C1CCN(CCOc2ccc(Cl)cc2Cl)CC1 (configuration not stated)
[51] O=C(N=C1N=C2C=CC=CN2Cc2ccccc21)c1ccc(S(=O)(=O)N2CCCC2)cc1
[52] CC1CCCCN1C(=O)CN1CCC(c2nc3ccc(Cl)cc3[nH]2)CC1 (configuration not stated)
[53] CCOC(=O)c1cc(N)cc([N+](=O)[O-])c1
[54] C#CCOCCOCCOCCNc1nc(N2CCN(C(=O)CCCCCCCCCCNC(=O)[C@H](CCCCN)n3cc(CCO)nn3)CC2)nc(N2CCN(C(=O)CCCCCCCCCCNC(=O)[C@H](CCCCN)n3cc(CCCC(=O)O)nn3)CC2)n1
[55] CN(C(=O)CCCN1C(=O)c2cccc3cccc(c23)C1=O)c1ccccc1
[56] O=C(O)c1ccccc1-c1ccccc1C(=O)NCc1cccc(C(F)(F)F)c1

compound no.	49	50	51	52	53	54	55	56
Vaccinia mCherry	-3%	i	-6%	-8%	-15%	i	-21%	i
Vaccinia Venus	?	-29%	-13%	-29%	-1%	-27%	-7%	-1%

[57] COc1ccc(Cl)cc1NC(=O)CSc1nc2ccccc2c2nc(-c3ccccc3)nn12
[58] Cc1cc(C)c(OCC(=O)Nc2ccc(S(=O)(=O)N3CCOCC3)cc2)c(C)c1
[59] CC(C)(C)C(=O)Nc1ccc(Sc2ccc([N+](=O)[O-])cc2)cc1
[60] CCOc1ccc(NC(=O)c2oc(=O)c3ccccc3c2-c2ccc(C)cc2)cc1
[61] CCCN1C(=O)/C(=C\c2nc3ccccc3c(=O)[nH]2)c2ccccc21
[62] COc1cccc(NC(=O)CN(c2ccc([N+](=O)[O-])cc2)S(=O)(=O)c2ccccc2)c1
[63] CCOc1cc(NC(=S)NC)c(OCC)cc1NC(=O)c1ccco1
[64] Cc1ccc(NC(=O)c2ncn(CC(=O)N3CCN(c4ccccn4)CC3)n2)cc1C

compound no.	57	58	59	60	61	62	63	64
Vaccinia mCherry	-3%	-5%	i	-10%	0%	i	-15%	i
Vaccinia Venus	6%	-21%	-16%	2%	-2%	-5%	-17%	0%

[65] Cc1ccc2nc(Nc3nc(CSc4nnc(C)s4)cc(=O)[nH]3)nc(C)c2c1
[66] Clc1cccc(CN2CCCCCCC2)c1Cl
[67] CC1CCN(c2c(NCc3ccc(C(=O)NCc4ccco4)cc3)c(=O)c2=O)CC1
[68] CN(CC(=O)Nc1cccc(F)c1)C(=O)C1CC(=O)N(Cc2ccccc2)C1 (configuration not stated)
[69] COC(=O)NNC(=S)NCc1ccccc1
[70] O=C(COC(=O)/C=C/c1ccccc1)NNC(=O)c1ccc([N+](=O)[O-])cc1
[71] CCn1c(SCC(=O)N/N=C(\C)c2ccncc2)nnc1-c1ccc(C)cc1
[72] CCc1ccc(-c2[nH]c3c(c2-c2c(-n4cccc4)n(C)c(=O)n(C)c2=O)c(=O)n(C)c(=O)n3C)cc1

compound no.	65	66	67	68	69	70	71	72
Vaccinia mCherry	-4%	i	9%	i	i	-25%	-9%	6%
Vaccinia Venus	-5%	-10%	9%	-9%	-7%	-8%	-10%	1%

[73] CN(C(=N)N)c1ccc(/C=C2\C=Cc3ccccc32)cc1
[74] Cc1ccc(C(=O)N(Cc2ccco2)c2c(N)n(Cc3ccccc3)c(=O)[nH]c2=O)cc1
[75] COc1ccc(OC)c(S(=O)(=O)N2CCCC(C(=O)N3CCC(C(N)=O)CC3)C2)c1 (configuration not stated)
[76] CNC(=O)/C(C#N)=C/c1c(F)cccc1Cl
[77] Cc1ccc(OCc2nc(-c3ccccc3)no2)cc1
[78] CCOC(=O)c1ccc(NC(=S)N2CCN(CCO)CC2)cc1
[79] COc1cccc(Nc2nc(C(N)C(C)C)cs2)n1 (configuration not stated)
[80] O=C(CS(=O)(=O)Nc1ccc(F)cc1Cl)Nc1ccc(F)cc1Cl

compound no.	73	74	75	76	77	78	79	80
Vaccinia mCherry	-26%	-1%	-13%	i	i	-6%	i	-9%
Vaccinia Venus	-17%	-5%	-1%	10%	-8%	-1%	-14%	-18%

[81] COC(=O)C1=C(c2ccc3ccccc3c2)C[C@@H]2CC[C@H]1N2C(=O)NCCNC(C)=O
[82] Cc1ccc(C)c(/C=N/NC(=S)NCCc2ccccc2)c1
[83] Cc1cccn2c(=O)c3cc(C(=O)NCc4ccccc4Cl)sc3nc12
[84] Oc1ccccc1CNc1ccc2c(c1)OCCO2
[85] CC1=C(C(=O)OC2CCCCC2)C(c2ccco2)C2=C(CC(C)(C)CC2=O)N1 (configuration not stated)
[86] CCOc1ccc(/C=C/C(=O)c2ccccc2)cc1OC
[87] CCN(CC)C(=O)Oc1ccc(Cl)c2cccnc12
[88] COc1c(Cl)cc(Cl)cc1/C=C(\C#N)c1nc(-c2ccc(Cl)cc2)cs1
[89] CCN(CC)c1ccc(/C=N/Nc2nc3ccccc3[nH]2)c(O)c1
[90] COCCCNC(=S)N(Cc1ccccc1)Cc1ccccc1
[91] CCOP(=O)(OCC)/C(C#N)=C/c1ccc(-c2ccc(F)cc2F)o1

compound no.	81	82	83	84	85	86	87	88	89	90	91
Vaccinia mCherry	-4%	-15%	6%	?	·	-15%	i	-5%	·	i	-4%
Vaccinia Venus	-4%	-5%	-4%	-8%	-13%	-15%	1%	5%	?	-15%	-23%

# Nothing new here: entries from further up.
[89] CCN(CC)c1ccc(/C=N/Nc2nc3ccccc3[nH]2)c(O)c1
[90] COCCCNC(=S)N(Cc1ccccc1)Cc1ccccc1
[91] CCOP(=O)(OCC)/C(C#N)=C/c1ccc(-c2ccc(F)cc2F)o1

compound no.	89	90	91
Vaccinia mCherry	·	i	-4%
Vaccinia Venus	?	-15%	-23%

# High-throughput results from PubChem.
